KCNQ2 enhance = potentiators of rat KCNQ2 potassium channel; Potassium voltage-gated channel subfamily KQT member 2 (Rattus norvegicus), O88943; CHO-K1 KCNQ2, FluxOR thallium flux fluorescence; stronger effect = higher value; B-score at 10 µM; 310,000 compounds, 0.54% hits; AID 2239, 2010;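 active = fluorescence ratio B-score at least 3 SD of library B-scores, with initial fluorescence B-score within 3 SD, cut at about 5.3 in these data; same plate scores as AID 2156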;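 also: B-score of peak minus minimum over baseline fluorescence ratio after K+ and Tl+ stimulus; positive B-score means potentiation of KCNQ2 with more thallium influx and brighter signal; only the inactives scoring about 0 or higher are listed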
Target sequence (O88943 whole entry, looked up): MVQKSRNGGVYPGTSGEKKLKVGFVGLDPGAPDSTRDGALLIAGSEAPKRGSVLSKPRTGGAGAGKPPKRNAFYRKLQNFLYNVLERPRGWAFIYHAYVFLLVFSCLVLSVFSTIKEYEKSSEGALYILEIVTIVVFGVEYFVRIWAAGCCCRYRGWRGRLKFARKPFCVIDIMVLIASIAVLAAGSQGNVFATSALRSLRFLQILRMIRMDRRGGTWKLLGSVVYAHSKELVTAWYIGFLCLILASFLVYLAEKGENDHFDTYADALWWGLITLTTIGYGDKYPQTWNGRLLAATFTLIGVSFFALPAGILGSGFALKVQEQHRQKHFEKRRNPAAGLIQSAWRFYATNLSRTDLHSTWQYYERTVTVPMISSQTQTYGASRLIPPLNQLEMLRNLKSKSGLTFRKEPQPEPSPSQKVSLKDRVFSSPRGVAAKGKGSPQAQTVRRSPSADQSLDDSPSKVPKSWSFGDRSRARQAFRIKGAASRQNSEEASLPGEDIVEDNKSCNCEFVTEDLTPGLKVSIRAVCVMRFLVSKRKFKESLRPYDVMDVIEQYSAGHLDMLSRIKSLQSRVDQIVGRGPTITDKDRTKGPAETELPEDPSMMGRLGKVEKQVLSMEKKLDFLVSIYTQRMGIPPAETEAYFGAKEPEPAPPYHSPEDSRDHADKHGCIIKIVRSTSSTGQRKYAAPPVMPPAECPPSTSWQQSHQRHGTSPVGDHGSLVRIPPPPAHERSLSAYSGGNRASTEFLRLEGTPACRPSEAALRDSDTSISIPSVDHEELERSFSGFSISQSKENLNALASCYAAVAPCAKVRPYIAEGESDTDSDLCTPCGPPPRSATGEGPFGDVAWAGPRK
KCNQ2 enhance baseline = recorded beside KCNQ2 enhance, whose call it bears; B-score; compound at 10 µM; measured here: initial fluorescence intensity artifact check;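 brightness before thallium and not channel activity; 0 = typical well and far values either way flag optical interference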
Active calls of the source: *.

SMILES	KCNQ2 enhance	KCNQ2 enhance baseline
O=C1CC(c2ccccc2)=NN1c1ccc([N+](=O)[O-])cc1	0.1	-1.1
CCOc1ccccc1OCC(=O)Nc1nnc(C)s1	0.13	0.15
O=C(c1cccc(S(=O)(=O)N2CCN(c3ccccc3)CC2)c1)N1CCCCCCC1	0.02	0.5
Cc1cc(OCC(=O)NCCN2CCOCC2)c2c(C)c(C)c(=O)oc2c1	0.27	1.7
CCc1ccc(N2C(=O)CC(c3ccc(F)cc3)C3=C2COC3=O)cc1 (stereo not given)	1.8	-0.73
Cc1ccc2c(c1)sc(=NC(=O)c1cccs1)n2C	0.4	0.87
O=C1CCc2cc(S(=O)(=O)N3CCN(c4cccc(C(F)(F)F)c4)CC3)ccc2N1	0.56	0.02
CCOC(=O)N1CCC(NC(=O)C2CCN(S(=O)(=O)c3cccs3)CC2)CC1	0.08	-1.7
COc1ccc(-c2cc3ccc(OCc4nn[nH]n4)cc3oc2=O)cc1OC	1.2	1.4
COc1ccc(C(C(=O)NCc2ccccc2)N(Cc2ccco2)C(=O)c2snc(C(N)=O)c2N)cc1OC (stereo not given)	2.1	-0.46
CCN(CC)S(=O)(=O)c1ccc(/C=C/C(=O)Nc2ccc(F)c(F)c2F)cc1	0.17	-0.24
CN1C(=O)c2oc3ccccc3c(=O)c2C1c1cccnc1 (stereo not given)	0.44	1
Cc1ccc(N(CC(=O)NCc2ccco2)C(=O)CCC(=O)Nc2ccccn2)cc1C	0.26	-1.1
Cc1occc1C(=O)N1CCCC(CCC(=O)NCc2ccc(F)c(F)c2)C1 (stereo not given)	0.7	0.31
COc1cccc(/C=N/NC(=O)C(=O)Nc2ccccc2OC(F)(F)C(F)F)c1	1	0.61
O=C(N/N=C\c1ccc(-c2cccc(Cl)c2)o1)C(=O)NC1CCCC1	1.7	-0.06
NC(=O)COC(=O)c1ccc(Cl)c(S(=O)(=O)N2CCN(c3ccc(F)cc3)CC2)c1	1.3	0.09
CCOCCn1c(CN2CCN(c3cccc(Cl)c3)CC2)nc2c1c(=O)n(C)c(=O)n2C	0.49	-0.11
NS(=O)(=O)c1ccc(CCNC(=O)CCc2nc3sc4c(c3c(=O)[nH]2)CCCC4)cc1	0.51	-2.8
CCOc1ccc(S(=O)(=O)N(CC(=O)NC2CCCC2)c2ccc(F)cc2)cc1	0.21	-1.7
COC(=O)C(C)Sc1nc2c(c(=O)n(C)c(=O)n2C)n1Cc1cccc(C)c1 (stereo not given)	0.09	0.42
O=C(NCC1CCCO1)c1nc(Cn2ccc([N+](=O)[O-])n2)no1 (stereo not given)	0.02	1.2
CC1CCN(S(=O)(=O)c2ccc(NC(=O)CN3CCCCCC3)cc2)CC1	0.24	-0.16
CC(=O)NCCC1CCN(C(=O)c2cc(COc3ccc(C)nc3)on2)CC1	1.3	0.4
COc1ccc(-c2nc(N)nc(C(F)(F)F)c2-c2cscn2)c(O)c1	0.47	-0.46
O=C(Nc1ccc(S(=O)(=O)N2CCOCC2)cc1)c1cccnc1	0.38	0.46
N#Cc1c2n(c3c(-c4ccccc4)ncnc13)CCC2	1.1	0.08
COc1ccccc1Oc1coc2c(CN3CCN(C)CC3)c(O)ccc2c1=O	0.1	-0.36
COc1ccc2c(Cn3cnc4cc([N+](=O)[O-])ccc4c3=O)cc(=O)oc2c1	1.9	-1.2
O=C(CSc1ccccc1)NCc1cccnc1	1.4	1.4

Another view of part of the listing above:
| SMILES | KCNQ2 enhance | KCNQ2 enhance baseline |
| --- | --- | --- |
| COC(=O)C(C)Sc1nc2c(c(=O)n(C)c(=O)n2C)n1Cc1cccc(C)c1 (stereo not given) | 0.09 | 0.42 |
| O=C(NCC1CCCO1)c1nc(Cn2ccc([N+](=O)[O-])n2)no1 (stereo not given) | 0.02 | 1.2 |

The results go on:
SMILES	KCNQ2 enhance	KCNQ2 enhance baseline
COc1ccc(CNC(=O)CSc2cc(=O)n(C)c3ccccc23)cc1	0.05	-2.1
COCCCN(CC(=O)Nc1ccc(N2CCOCC2)cc1)S(=O)(=O)c1ccc(C)cc1	1.3	-1.4
COc1ccc2[nH]c3nc(SCC(=O)Nc4cccc(NC(C)=O)c4)nnc3c2c1	0.06	1.2
C=C1CCN([C@@H](CC(C)C)C(=O)O)S(=O)(=O)c2ccccc21	0.73	2.1
COc1ccc(-c2noc(CN(C)Cc3ccc(C)o3)n2)cc1	0.08	1.7
O=C(O)CCCNS(=O)(=O)c1ccc(F)cc1	0.23	0.03
Cc1cc(NC(=O)c2ccc(N3CCCC3)c([N+](=O)[O-])c2)no1	1.5	1.3
CC(CN1CCOCC1)(NS(=O)(=O)c1ccccc1)c1ccccc1 (stereo not given)	1.2	-0.77
CCCNC(=S)Nc1ccc(Cl)cc1C	2.3	1.2
O=C(Nc1cccc(C(F)(F)F)c1)c1cccnc1NCCO	0.3	3.4
Cc1ccccc1CS(=O)(=O)Cc1ccc(C(=O)NCc2ccco2)o1	0.84	-0.03
CCOc1ccc(NC(=O)CSc2nc3c([nH]c4ccccc43)c(=O)n2C)cc1	2.1	1.6
Cc1ccc(S(=O)(=O)NCCC(=O)Nc2ccc(Cl)c(Cl)c2)cc1C	0.93	0.41
COc1ccccc1C(=O)NCCC(=O)Nc1ccc(OC(F)(F)F)cc1	0.07	1.4
Cc1cc(C)cc(NC(=O)C2CCC(CNC(=O)[C@@H]3Cc4ccccc4CN3)CC2)c1 (stereo not given in full)	0.52	1.8
Cc1c(NC(=O)C23CC4CC(CC(C)(C4)C2)C3)c(=O)n(-c2ccccc2)n1C	0.25	0.18
CC(=O)NCC(=O)N1CCCC(C(=O)c2ccc3c4c(cccc24)CC3)C1 (stereo not given)	0.09	-0.27
CN(C)C(CNC(=O)c1ccc(NS(=O)(=O)c2cccc([N+](=O)[O-])c2)cc1)c1ccco1 (stereo not given)	0.94	0.44
O=C(NCCN1C(=O)S/C(=C\c2ccccc2F)C1=O)C1CCN(S(=O)(=O)c2cccs2)CC1	0.13	-1.6
Cc1noc(C)c1CN1C(=O)NC2(CCCCCCC2)C1=O	0.33	1.1
CCNC(=O)CCSc1nc2cc(Cl)ccc2o1	0.56	-1.2
CSc1cccc(NC(N)=S)c1	0.78	-1.8
CN(C)S(=O)(=O)c1cccc(NC(=O)c2ccc(-n3cncn3)c([N+](=O)[O-])c2)c1	2.4	-1.4
Cc1c(C(=O)N2CC3(CC(c4cccc(NC(=O)CC(c5ccccc5)c5ccccc5)c4)=NO3)C[C@@H]2C(N)=O)cc([N+](=O)[O-])cc1[N+](=O)[O-] (stereo not given in full)	0.15	-0.1
N#Cc1cn(OCc2ccccc2)c(=O)[nH]c1=O	0.52	-0.57
O=C(CSc1nccn1-c1ccc(Cl)cc1)NCc1ccc2c(c1)OCO2	1.1	-0.7
CC(C)Sc1nc2c(c(=O)[nH]c(=O)n2C)n1Cc1ccccc1	1.3	-1.4
COC(=O)c1cn(NC(=O)C2CCCO2)c(=O)c2ccccc12 (stereo not given)	0.79	1.5
O=C(Nc1ccccc1Cl)N1CCn2c(nc3ccccc32)C1	0.49	-1.1
C=CCNc1nnc(SC2CC(=O)N(c3ccc(OCCC)cc3)C2=O)s1 (stereo not given)	0.73	0.92
COc1ccc(C(=O)COC(=O)/C=C/c2ccc(S(=O)(=O)Nc3cccc(S(N)(=O)=O)c3)cc2)cc1	1.9	-0.6
Nc1nc(SCc2ccc(F)cc2)n[nH]1	0.52	-0.21
Cn1c(N)c(C(=O)COC(=O)c2ccc(Cl)c(S(=O)(=O)N3CCCCC3)c2)c(=O)n(C)c1=O	2.2	-1.9
O=C(CSc1ccccc1F)NC1CCS(=O)(=O)C1 (stereo not given)	1.1	0.1
COC(=O)c1c(C(=O)OC)c(-c2ccc(C)cc2)n2c1CS(=O)(=O)C2	0.52	-0.67
CCOC(=O)CCc1c(C)c(C#N)c2nc3ccccc3n2c1-n1cnc2ccccc21	0.3	-1.6
CN1CCc2c(sc(NC(=O)c3ccc(S(=O)(=O)N4CCCC4)cc3)c2C(N)=O)C1	1.2	0.29
CCOc1cc(Br)cc(/C=N/NC(=O)c2cccnc2)c1O	1	0.5
COc1ccc(Cc2[nH]n3c(=O)cc(C(C)C)nc3c2-c2ccccc2)cc1	1.2	1.4
Cc1nc2sc(C(c3cccc(F)c3)N3CCC(C)CC3)c(O)n2n1 (stereo not given)	0.23	0.01
COc1cccc(C2[C@H](C)C3(CCN2C)OCCO3)c1 (stereo not given in full)	1.4	1
NNC(=O)c1ccc(COc2ccc3c(c2)CCC3)o1	2	-0.14
CCN1CCN(C(C)C(=O)Nc2c(C)n(C)n(-c3ccccc3)c2=O)CC1 (stereo not given)	0.1	-0.17
O=C(Cn1cnc2ccccc2c1=O)NCCC(=O)Nc1ccc2c(c1)OCCO2	0.02	0.97
Cc1ccc(Cl)cc1N1CCN(C(=O)c2ccc(NC3=NC4CS(=O)(=O)CC4S3)cc2)CC1 (stereo not given)	0.02	-0.65
CCOc1ccccc1NC(=O)Cn1c(C)cc(COC)c(C#N)c1=O	1.5	-2.2
Cc1ccc(-n2c(C)c(C)c3c(NCCN(C)C)ncnc32)cc1	0.85	-0.75
Cc1nn(Cc2ccc(C(=O)N3N=C(C(F)F)CC3(O)C(F)F)cc2)c(C)c1[N+](=O)[O-] (stereo not given)	2.6	1.9
Cc1nn(C(=O)c2nn(C)cc2[N+](=O)[O-])c(C)c1Cl	0.61	-0.5
Cc1ccc(NC(=O)c2noc3c2CCCCC3)cc1C	0.63	-0.06
CC(C)C(=O)N1CCN(c2ccc(NC(=O)c3ccco3)cc2Cl)CC1	2	-0.02
CC(C)(C)c1ccc(C2(C)NC(=O)N(CC(=O)NCc3cccs3)C2=O)cc1 (stereo not given)	0.75	0.52
COc1ccccc1NCCC(=O)OCC(=O)NC1CCCCC1	1	0.45
O=S(=O)(Nc1cccc(S(=O)(=O)N2CCOCC2)c1)c1cccs1	0.04	2.3
O=C(O)COc1ccc(-c2nnn(CC(=O)O)n2)cc1	0.74	-0.51
COc1ccc(SCCN2CCN(C)CCC2=O)cc1	0.87	0.39
CC(C)CN(C(=O)COC(=O)c1cnccn1)c1c(N)n(Cc2ccccc2)c(=O)[nH]c1=O	0.33	-0.03
Cc1cc(NC(=O)c2ccc(NC(=O)C(C)C)cc2)no1	1.8	1.3
Cc1c(Cl)cccc1NC(=O)CSc1nc2ncc(Cl)cc2[nH]1	0.48	0.2
Cc1c(NC(=O)C2CC(c3c(F)cccc3Cl)=NO2)c(=O)n(-c2ccccc2)n1C (stereo not given)	2.5	1.7

Additional results follow.
SMILES	KCNQ2 enhance	KCNQ2 enhance baseline
O=C(/C=C/c1ccc(F)cc1)Nc1ccc(S(=O)(=O)Nc2ncccn2)cc1	0.33	0.59
O=C(N/N=C/c1ccco1)C1CC1c1ccccc1 (stereo not given)	20*	1.1*
O=C(Nc1ccc(S(=O)(=O)Nc2ncccn2)cc1)C1=COCCO1	0.29	-2.5
COc1ccc(NC(=O)N2CCCc3ccccc32)cc1OC	0.16	-0.01
CNC(=S)Nc1cccc(C(C)=O)c1	0.59	-1.1
O=C1Nc2cc(C(=O)N3CCc4ccccc4C3)ccc2S/C1=C\c1ccccc1	0.79	-1.2
CC(=O)OCC1=C(C(=O)O)N2C(=O)C(NC(=O)C(C)Cn3nc(C)c(Cl)c3C)C2SC1 (stereo not given)	0.7	3
CCOCCn1c(N(C)Cc2ccccc2)nc2c1c(=O)[nH]c(=O)n2C	0.31	-0.58
Cc1sc(NC(=O)c2ccco2)c(C(c2cccnc2)N2CCC(C)CC2)c1C (stereo not given)	0.41	-1.3
COc1ccc(C(CC(=O)N2CCCC2)C(C)C)cc1 (stereo not given)	0.65	0.14
Cc1ccccc1-n1nc2c(c1NC(=O)c1cccc(F)c1)CS(=O)C2 (stereo not given)	0.21	0.09
O=[N+]([O-])c1ccc(COP(=O)(O)OCc2ccc([N+](=O)[O-])cc2)cc1	0.09	-0.25
CCOC(=O)C1=C(C)Nc2nc(C)nn2C1c1ccc(OC)c(OC)c1 (stereo not given)	0.37	-0.79
CCC(C(=O)OC)n1cnc2c(nnn2-c2cccc(OC)c2)c1=O (stereo not given)	0.79	-0.44
COc1ccccc1-n1c([S-])c(C(=O)Nc2ccccc2C(F)(F)F)[n+]2ccc(C(=O)NCCO)cc12	0.11	0.18

Another view of part of the listing above.
| KCNQ2 enhance | KCNQ2 enhance baseline | Molecule |
| --- | --- | --- |
| 0.7 | 3 | CC(=O)OCC1=C(C(=O)O)N2C(=O)C(NC(=O)C(C)Cn3nc(C)c(Cl)c3C)C2SC1 (stereo not given) |
| 0.41 | -1.3 | Cc1sc(NC(=O)c2ccco2)c(C(c2cccnc2)N2CCC(C)CC2)c1C (stereo not given) |
| 0.21 | 0.09 | Cc1ccccc1-n1nc2c(c1NC(=O)c1cccc(F)c1)CS(=O)C2 (stereo not given) |
| 0.29 | -2.5 | O=C(Nc1ccc(S(=O)(=O)Nc2ncccn2)cc1)C1=COCCO1 |
| 0.37 | -0.79 | CCOC(=O)C1=C(C)Nc2nc(C)nn2C1c1ccc(OC)c(OC)c1 (stereo not given) |
| 0.16 | -0.01 | COc1ccc(NC(=O)N2CCCc3ccccc32)cc1OC |
| 0.09 | -0.25 | O=[N+]([O-])c1ccc(COP(=O)(O)OCc2ccc([N+](=O)[O-])cc2)cc1 |

Continuation:
SMILES	KCNQ2 enhance	KCNQ2 enhance baseline
COCCCNC(=O)CN(CCc1ccccc1)S(=O)(=O)c1ccccc1	1.1	0
O=C1Nc2ccc([N+](=O)[O-])cc2C1(O)N1CCCCCC1 (stereo not given)	0.99	0.09
CC(Oc1ccc(Br)cc1)c1nc2c3ccccc3nc(=S)n2[nH]1 (stereo not given)	5.4*	0.41*
CCCOc1c(Cl)cc(C(=O)Nc2ccc3c(c2)OCO3)cc1OCC	0.61	-0.1
COC(=O)c1cc2n(n1)CCN(Cc1ccc(F)cc1)C2=O	0.14	0.43

Screens from PubChem.

The list is partial (hit frequency here may not be typical).
